Screening data: PubChem BioAssay, ICCB-Longwood Screening Facility, Harvard Medical School
Ecoli growth – E. coli growth inhibition, primary screen, OD600. AID 1053175, 2014. OD600 absorbance (concentration not given with the values). Escherichia coli growth, 23 h; stronger effect = lower value. 330,000 tested, 0.21% active;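 active means OD600 absorbance below the run mean of sample wells minus 3.6 SD, in any replicate, cut at about 0.56 in these data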;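 further: stock transfer was 300 nL into about 60 µL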
Numbers without * were called inactive; & = joins results of further samples. The list is partial, so the mix of outcomes need not match the whole.

molecule	Ecoli growth
COc1ccc(C2C=CCN(C(=O)Nc3ccccc3)CC(=O)N2Cc2ccc(F)cc2)cc1 (stereo unspecified)	0.7
COc1cccc(C=NNC(=O)CN(CCc2ccccc2)S(=O)(=O)c2ccc(NC(C)=O)cc2)c1	0.65
ON=C1CCc2cc(Cl)ccc21	0.64
CN(C)c1ccc(C=NNC(=O)C[n+]2ccccc2)cc1	0.65
CCN=c1scc(-c2ccco2)n1N=Cc1ccc(OC)c(O)c1	0.65
COc1ccc(C2CC(=O)C=C(c3cc(Cl)ccc3C)C2)cc1 (stereo unspecified)	0.69
CC(=O)OC1C2C(CC(C)C3C=CC(=O)[C@]31C)OC(=O)C2C (stereo partly specified)	0.66
CCCOc1ccc(C(O)=C2C(=O)C(=O)N(CCN(C)C)C2c2ccco2)cc1 (stereo unspecified)	0.68
Cc1ccc(NCC(=O)NN=Cc2cccc(Br)c2)cc1	0.68
COc1ccc(N(CC(=O)NN=Cc2cccnc2)S(=O)(=O)c2ccccc2)c(OC)c1	0.68
COC(=O)[C@@]12CCCCN1C(c1ccc(-c3ccc4c(c3)OCO4)c(OC)c1)C1C(=O)N(C)C(=O)C12 (stereo partly specified)	0.72
CCOC(=O)c1sc(NN=Cc2cccc(C)c2)nc1C	0.76
C/C(C=NNC(=O)c1cc(C2CC2)[nH]n1)=C\c1ccccc1	0.64
CC(C)NC(=O)N(C)CC1Oc2ccc(NS(=O)(=O)c3ccc(Cl)cc3)cc2CC(=O)N(C(C)CO)CC1C (stereo unspecified)	0.68
O=C(NN=Cc1cc([N+](=O)[O-])ccc1O)c1c[nH]c2ccccc12	0.72
COc1cccc(C=NN2CCN(c3ccc(Cl)cc3)CC2)c1OC	0.67
CCOC(=O)NN=Cc1cn(CCCOc2ccccc2)c2ccccc12	0.71
CC(=NNC(=O)c1ccc2c(c1)OCCO2)c1ccc([N+](=O)[O-])cc1	0.66
CC(=O)ON=C1C(=O)N(Cc2ccc(C)cc2)c2ccccc21	0.66
O=C(Cc1cccs1)NN=Cc1ccc([N+](=O)[O-])s1	0.66
CC(=NNC(=O)c1ccc(CSc2cccc3cccnc23)cc1)C1CCCCC1	0.71
CCC=CC(=O)N1CC2(CC(c3cccc(NC(=O)COc4ccc(Cl)cc4)c3)=NO2)CC1C(N)=O (stereo unspecified)	0.65
NC(=O)COc1ccc(C=NNS(=O)(=O)c2ccccc2)cc1	0.65
COC(=O)C1=C(C(=O)OC)C2N(C)c3ccc(OC)cc3[C@@]23CC(C(=O)OC)N=C3N1 (stereo partly specified)	0.65
Oc1ccc(C=NNc2cccc(Cl)n2)c(O)c1	0.66
S=c1[nH]nc(-c2ccccc2)n1N=Cc1ccc(Cl)cc1	0.67
CC(C)NC(=O)N(C)CC1Oc2ccc(NC(=O)c3ccncc3)cc2C(=O)N(C(C)CO)CC1C (stereo unspecified)	0.67
CCOC(=O)C1C2COc3ccc(Br)cc3C2N2C(=O)C(C)NC(=O)[C@@]12C (stereo partly specified)	0.69
O=C(NN=C/C=C/c1ccccc1)c1cccc(Br)c1	0.65
COc1ccc(-c2cc(C3C4C=CCC[C@@]4(C)C(=O)N3Cc3ccccc3)ccc2F)cc1 (stereo partly specified)	0.71
CN(C)c1ccc(C=NNC(=O)c2nnn(-c3nonc3N)c2COc2ccc(F)cc2)cc1	0.69
CCCOc1ccc(C=NNC(=O)CCc2n[nH]c(=O)[nH]c2=O)cc1OC	0.69
CC(Cn1cnc([N+](=O)[O-])n1)=NNC(=O)c1ccncc1	0.68
CCN1C(C)=C(C)SC1=C1SC(=S)N(C2CCCCC2)C1=O	0.75
CC(=NNC(=O)c1cccc([N+](=O)[O-])c1)c1cccnc1	0.66
COc1ccc(CN2C(CC(=O)O)c3cc(C(F)(F)F)ccc3S2(=O)=O)cc1 (stereo unspecified)	0.68
C#CCOCCOCCOCCNc1nc(N2CCN(C(=O)C(CO)n3cc(C(N)C(C)C)nn3)CC2)nc(N2CCN(C(=O)C(C(C)O)n3cc(C(N)CCCCN)nn3)CC2)n1 (stereo unspecified)	0.7
O=C(NN=Cc1ccc(Sc2ccccn2)o1)c1cccc(F)c1	0.67
COc1ccc(C=NNC(=O)c2ccccc2Br)cc1COc1ccc(F)cc1	0.71
CCc1ccc(OCC(=O)NN=C(C)c2ccc(OC(F)F)cc2)cc1	0.71
CCC(CO)Oc1cc(NCc2ccc(Cl)c(Cl)c2)c2ncn(C(C)C)c2c1 (stereo unspecified)	0.71
Cc1ccn2c(C=NOCc3cccc(F)c3)c(-c3ccc(Cl)cc3)nc2c1	0.76
CCOC(=O)c1ccc(C=NO)[n+](Cc2ccccc2)c1	0.67
CC(C)C(=O)ON=C1CCS(=O)(=O)c2sccc21	0.7
CC(=NNC(=O)c1cc(-c2cccc([N+](=O)[O-])c2)n[nH]1)c1ccc(F)cc1	0.7
CC(=NNC(=O)c1ccco1)c1ccc(NC(=O)c2ccc(Br)o2)cc1	0.69
CC1CCC(=O)N(CC(C)CC#N)CC1 (stereo unspecified)	0.68
O=C(NN=Cc1ccc2ncccc2c1)c1ccco1	0.68
O=C(CNc1ccc2ccccc2c1)NN=Cc1ccc(C(=O)O)cc1	0.72
NN=C(c1ccccc1)c1cc(Cl)ccc1N	0.68
O=C(CC=NOCc1ccc([N+](=O)[O-])cc1)Nc1ccc(Cl)cc1	0.71
CCCOc1ccc2ccccc2c1C=Nn1c(C)nnc1-n1nc(C)cc1C	0.72
Cc1cc(=O)[nH]c(NN=Cc2c(F)c(F)c(F)c(F)c2F)n1	0.61
COc1ccc2c(c1)c(C(=O)NN=Cc1cccc(O)c1)c(C)n2C	0.66
O=C(NN=Cc1ccc(Sc2ccccn2)o1)c1cc2ccccc2cc1O	0.63
Cc1ccc2cc(C=NNC(=O)[C@@H]3CCCN3)c(Cl)nc2c1	0.7

Next section
molecule	Ecoli growth
CCCOc1ccc(C=NNC(=O)C(=O)Nc2ccccn2)cc1	0.68
COC(=O)C1=CC(C(=O)OC)C2C3=C(C(=O)C24CCCCC4)C(C)n2c(=O)n(-c4ccccc4)c(=O)n2C3C1 (stereo unspecified)	0.71
CCCCCC=NNC(=O)c1[nH]c2ccc([N+](=O)[O-])cc2c1C	0.64
CC(C)(C)NC(=O)CCN(N=Cc1ccccc1O)C1=NS(=O)(=O)c2ccccc21	0.67
Nc1nonc1-n1nnc(C(=O)NN=Cc2cccnc2)c1CSc1ccccc1	0.63
Cc1cc(Cl)ccc1OCC(=O)NN=C1CCCc2ccccc21	0.74
Cc1nnc(NN=Cc2c[nH]c3ccccc23)[nH]c1=O	0.7
COCc1cc(C)nc(OCC(=O)NN=Cc2ccc(C)cc2)c1C#N	0.67
C#CCOCCOCCOCCNc1nc(N2CCOCC2)nc(N2CCN(C(=O)C(C(C)CC)n3cc(C(N)CC(C)C)nn3)CC2)n1 (stereo unspecified)	0.65
COc1ccc(C(=O)NN=Cc2ccc(OC)c(COc3ccc(F)cc3F)c2)cc1	0.69
NCCCCC1CN=C(N)N1CCCCC1CCCCC1 (stereo unspecified)	0.68
O=C1CCN(Cc2cccnc2)CCN1C(CO)Cc1ccccc1 (stereo unspecified)	0.67
C=C(C)CNC(=S)NN=CC1=CCC2CC1C2(C)C (stereo unspecified)	0.68
Cc1noc(C)c1NC(=O)N(C)CC1Oc2ccc(NS(=O)(=O)c3cccs3)cc2C(=O)N(C(C)CO)CC1C (stereo unspecified)	0.65
O=C(NN=Cc1cccc(Cl)c1Cl)Nc1ccccc1	0.73
O=C(CNC(=O)c1ccccc1)NN=Cc1ccc([N+](=O)[O-])s1	0.64

Structures above that have a nitro group on carbon:
molecule	Ecoli growth
O=C(NN=Cc1cc([N+](=O)[O-])ccc1O)c1c[nH]c2ccccc12	0.72
CC(=NNC(=O)c1ccc2c(c1)OCCO2)c1ccc([N+](=O)[O-])cc1	0.66
O=C(Cc1cccs1)NN=Cc1ccc([N+](=O)[O-])s1	0.66
CC(Cn1cnc([N+](=O)[O-])n1)=NNC(=O)c1ccncc1	0.68
CC(=NNC(=O)c1cccc([N+](=O)[O-])c1)c1cccnc1	0.66
CC(=NNC(=O)c1cc(-c2cccc([N+](=O)[O-])c2)n[nH]1)c1ccc(F)cc1	0.7
O=C(CC=NOCc1ccc([N+](=O)[O-])cc1)Nc1ccc(Cl)cc1	0.71
CCCCCC=NNC(=O)c1[nH]c2ccc([N+](=O)[O-])cc2c1C	0.64
O=C(CNC(=O)c1ccccc1)NN=Cc1ccc([N+](=O)[O-])s1	0.64

The listing continues.
molecule	Ecoli growth
N#Cc1c(N=CN2CCCC2)oc(-c2ccccc2)c1-c1ccccc1	0.75
CC(CC(=O)N1CCN(C=O)CC1)=NNC(=O)c1ccc([N+](=O)[O-])cc1	0.71
CC(C)(C)OC(=O)NCCCCC(C(=O)NCCCCCCCCCCC(=O)N1CCN(C(=O)OC(C)(C)C)CC1)n1cc(CCCC(=O)O)nn1 (stereo unspecified)	0.7
O=C(NN=Cc1ccncc1)c1cc(C2CC2)nc2ccccc12	0.65
CCOc1ccc(N(CC(=O)NN=C(C)c2cccc(NC(C)=O)c2)S(=O)(=O)c2ccccc2)cc1	0.66
CCCc1ccc(OCc2ccc(C(=O)NN=Cc3cccc([N+](=O)[O-])c3)o2)c(OC)c1	0.75
Cc1cc(C)n(N=Cc2cccc(O)c2)c(=O)c1C(N)=O	0.72
O=C(NN=Cc1ccco1)c1ccc(OCc2ccccc2)cc1	0.67
O=C(CSc1ncn[nH]1)NN=Cc1ccc(F)cc1	0.69
CCCCN1C(=S)NCC1c1ccccc1 (stereo unspecified)	0.71
COc1ccc2[nH]c(C(=O)NN=Cc3ccccc3OC)cc2c1	0.66
CC(=NNC(=O)c1ccccc1F)c1ccc2c(c1)Nc1ccccc1S2	0.7
CC(=NNC(=O)c1c(Cl)cnn1C)c1ccc(NC(=O)c2ccncc2)cc1	0.65
CC(=N/N=C1/NC(=O)CC(C(=O)O)S1)c1cccs1 (stereo unspecified)	0.74
C=C(C)C1CC=C(C)C(=NNC(=O)c2ccc(NC(=O)c3cccc(C)c3)cc2)C1 (stereo unspecified)	0.66
Cc1nc(C(=NO)C(N)=O)cs1	0.71
O=C(CC(=O)NN=Cc1c(Cl)cccc1Cl)NCc1cccnc1	0.69
CC(=NNC(=O)CNc1ccc(F)cc1)c1cc2ccccc2o1	0.74
COc1ccc(C=NNC(=O)c2cc(C)n(-c3ccccc3)c2C)cc1OC	0.67
COc1cc(C(C)=NNC(=O)CSc2nc3ccccc3n2C)ccc1O	0.72
CC(=NNC(=O)CCC(=O)NCc1ccccc1)c1ccc([N+](=O)[O-])cc1	0.67
Cc1ccc(S(=O)(=O)NN=Cc2cccc([N+](=O)[O-])c2)cc1	0.66
CC(C)C1COCCS(=O)(=O)N1Cc1ccccc1F (stereo unspecified)	0.66
C#CCOCCOCCOCCNc1nc(N2CCN(C(=O)C(CCC(=O)O)n3cc(C(N)CCCCN)nn3)CC2)nc(N2CCN(C(=O)C(CCCN=C(N)N)n3cc(C(N)C(C)CC)nn3)CC2)n1 (stereo unspecified)	0.71
O=C1CCN(CCc2ccccc2)CCN1C(CSc1ccc(Br)cc1)c1ccccc1 (stereo unspecified)	0.72
Cc1c(N=C(N)N=C(N)Nc2ccccc2)c(=O)n(-c2ccccc2)n1C	0.66
COc1cc(C2CC=C(C(=O)O)C(c3ccc(Cl)cc3)N2S(=O)(=O)c2ccc(C)cc2)cc(OC)c1OC (stereo unspecified)	0.71
CCOC(=O)C1C2COc3ccc(Br)cc3C2N2C(=O)N(c3cccc(F)c3)C(=O)[C@]12C (stereo partly specified)	0.68&0.68
O=C(Cn1cnc([N+](=O)[O-])n1)NN=Cc1ccc(O)cc1O	0.66
Clc1cccc(C=NNc2nc(Cl)nc3ccccc23)c1	0.7
Cc1ccc(CN2CCN(N=Cc3ccc(Cl)c([N+](=O)[O-])c3)CC2)cc1	0.68
Cc1cccc(NC(=S)N=C(N)Nc2nc(C)c3ccc(C)cc3n2)c1	0.73
Cc1ccc(C=Nn2nnnc2N)cc1[N+](=O)[O-]	0.66
COc1ccc(C2CC(=O)C=C(c3cccc(CO)c3)C2)cc1OC (stereo unspecified)	0.69
COc1ccc2sc(-c3ccc(SC)cc3)c(C=Cc3ccc(OC)c(OC)c3)c2c1	0.7
CC1CN(C(C)CO)C(=O)c2cccc(NC(=O)c3ccncc3)c2OC1CN(C)Cc1ccc(C(=O)O)cc1 (stereo unspecified)	0.66
COc1ccc(C(=O)ON=C(N)Cc2ccc(Cl)cc2)cc1OC	0.74
C=C1CC(OC2OC(CO)C(O)C(O)C2O)C2C(C)C(=O)OC2C2C1CC(O)C2C (stereo unspecified)	0.66&0.66
CC(=NNC(=O)c1cccnc1)c1ccc(Br)cc1	0.7
COC(=O)C(Cc1ccccc1)NS(=O)(=O)NC(Cc1ccccc1)C(=O)OC (stereo unspecified)	0.7
O=C(Cn1nc2n(c1=O)-c1ccccc1SC2)NN=Cc1ccncc1	0.66
O=C(CN1c2ccccc2Sc2ccccc21)NN=Cc1ccccc1	0.7
CC(=NNC(=O)CNC(=O)Cc1ccc(Cl)cc1)c1ccco1	0.63
COc1ccc(CC(=O)NN=C(C)c2cccnc2)cc1	0.68
COc1ccc(C=Cc2ccccc2)cc1C1C2C=CCC[C@@]2(C)C(=O)N1Cc1ccccc1 (stereo partly specified)	0.74
C(=NNc1ncnc2ccccc12)c1ccccc1	0.66
CCCCCC(=O)Nc1cccc(C2=NOC3(C2)CC(C(N)=O)N(C(=O)CCCCC)C3)c1 (stereo unspecified)	0.69
